# Hsc70 ATP site = Hsc70 inhibitors, probe displacement, primary screen, biochemical, fluorescence polarization (AID 568); Heat shock cognate 71 kDa protein (Homo sapiens); Hsc70 fluorescence polarization, probe displacement; higher % means a stronger effect; strong numbers were not always called active; one-dose displacement, % at 20 µM; IC50 in µM for titrated hits; 83,000 tested, under 10 active;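 active = displacement above 50% without optical interference and an IC50 on retest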;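 note: ATPase domain with a fluorescein-tagged ATP probe; 0% = vehicle and 100% = excess ADP; read after one hour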
# MT1-MMP promoter = inhibitors of MT1-MMP promoter transcription, cell-based, luciferase reporter, luminescence (AID 618); MT1-MMP promoter luciferase reporter cells, luminescence; calls from a first round at 10 µM; hits with a dose series show EC50 in µM; 87,000 tested, 0.62% active;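 active = over half of the reporter light lost at 10 µM or EC50 under 50 µM; inactive = the rest and hits that failed the dose series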;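 note: actives suppress MT1-MMP promoter-driven transcription so potencies describe inhibitors; HT1080 fibrosarcoma cells; overnight exposure; toxic or luciferase-blocking compounds were not removed from the actives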
# WNV NS2B-NS3 inh = inhibitors of WNV NS2B-NS3 protease, primary screen, biochemical, fluorogenic substrate. fluorogenic substrate Ex360/Em465; stronger effect = lower value. z-score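 (tested at a level between 10 and 100 µM)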. 65,000 tested, 0.18% active. AID 577, 2007;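 active = z-score at -3 or under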;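 note: score is relative to mean and spread of the compound wells of a plate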
# Target sequence (P06935 1371-1501 limits assumed): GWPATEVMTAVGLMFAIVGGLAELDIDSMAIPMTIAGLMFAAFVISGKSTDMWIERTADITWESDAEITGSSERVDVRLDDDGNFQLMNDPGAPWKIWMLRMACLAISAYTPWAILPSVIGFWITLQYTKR
# Target sequence (P06935 1502-1679 limits assumed): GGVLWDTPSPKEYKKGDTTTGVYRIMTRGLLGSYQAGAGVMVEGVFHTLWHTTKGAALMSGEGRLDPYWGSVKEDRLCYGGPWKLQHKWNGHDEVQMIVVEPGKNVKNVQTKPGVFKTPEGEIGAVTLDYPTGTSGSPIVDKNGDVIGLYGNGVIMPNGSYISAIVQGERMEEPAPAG
# Active calls of the source: *; i = inactive; / = no result given.
SMILES,Hsc70 ATP site,MT1-MMP promoter,WNV NS2B-NS3 inh
N#Cc1nc(-c2ccccc2F)oc1N1CCCC1,1.8%,i,1.4
O=C(COc1ccc2c3c(c(=O)oc2c1)CCC3)NC1CCCCC1,4.1%,i,-0.32
CCOC(=O)N1CCN(Cc2ccccc2Cl)CC1,-5.9%,i,-0.02
CCC(=O)Nc1cccc(-c2nnc(-c3cccc(NC(=O)CC)c3)o2)c1,6.2%,i,/
O=C(OCC(=O)N1CCN(c2ccccc2)CC1)c1ccco1,2.2%,i,-0.83
CN1CCN(C(=O)NC2CCCCC2)CC1,2.1%,i,/
Nc1nonc1C(=O)NCCc1ccccc1,-6.6%,i,-1.2
CCOC(=O)CC(=O)CSc1ccc2nnc(-c3ccc(C)cc3)n2n1,-8.7%,i,-0.89
Cc1cccc(Cn2c(N3CCN(c4ccccc4)CC3)nc3c2c(=O)n(C)c(=O)n3C)c1,-5.3%,i,-0.03
CC(C)C1Oc2ccccc2N(CC(=O)N(Cc2ccccn2)C2CC2)C1=O (stereo not given),1.3%,i,/
Cc1ccc(SCc2c(C#N)c3ccccc3n2C)cc1,5.3%,i,-0.2
CN(Cc1nc(-c2ccncc2)no1)S(=O)(=O)c1ccccc1,-0.1%,i,0.17
CCCCC(=O)N1CCCC(c2nc3c(nnn3Cc3cc(C)ccc3C)c(=O)[nH]2)C1 (stereo not given),2.0%,i,-0.37
COc1ccc(C)cc1NC(=O)CNC(=O)Cn1ccc2ccccc2c1=O,0.4%,i,-0.26
CC(CN1CCOCC1)C(=O)O (stereo not given),5.6%,i,-0.97
CSc1ccc(S(=O)(=O)Nc2cccc(F)c2)cc1,0.1%,i,-0.1
O=C(O)C1CCC(=O)N1C1c2ccccc2Oc2ccccc21 (stereo not given),3.5%,i,-0.85
COc1cc(OC)c(C2=NOC(C(=O)O)C2)cc1Cl (stereo not given),-2.8%,i,0.68
COc1ccc(-n2nc3c(c2NC(=O)c2ccc(Br)cc2)CS(=O)C3)cc1 (stereo not given),1.9%,i,-0.68
COc1ccc(C2CC(=O)N3CN(c4ccccc4F)CSC3=C2C#N)cc1OC (stereo not given),3.8%,i,-0.86
CC(=O)Nc1cccc(-c2nc3ccc(NC(C)=O)cc3[nH]2)c1,-1.1%,i,-0.31
CCOC(=O)c1nnn(-c2nonc2N)c1-c1ccc(OCC)cc1,1.6%,i,-1
O=C(CSc1nccn1-c1ccc(F)cc1)NCc1ccc2c(c1)OCO2,-3.8%,i,1.2
CCn1c(SCC(=O)N2CCCc3ccccc32)nc2ccccc2c1=O,4.7%,i,0.01
CC(=O)Nc1ccc(S(=O)(=O)NCc2ccc(C(=O)NCc3ccc4c(c3)OCO4)cc2)cc1,-0.9%,i,1.3

# For convenience, part of the list above.
SMILES,Hsc70 ATP site,MT1-MMP promoter,WNV NS2B-NS3 inh
N#Cc1nc(-c2ccccc2F)oc1N1CCCC1,1.8%,i,1.4
O=C(COc1ccc2c3c(c(=O)oc2c1)CCC3)NC1CCCCC1,4.1%,i,-0.32
CCOC(=O)N1CCN(Cc2ccccc2Cl)CC1,-5.9%,i,-0.02

# Gathered by group: the compounds so far with a COOH group
SMILES,Hsc70 ATP site,MT1-MMP promoter,WNV NS2B-NS3 inh
CC(CN1CCOCC1)C(=O)O (stereo not given),5.6%,i,-0.97
O=C(O)C1CCC(=O)N1C1c2ccccc2Oc2ccccc21 (stereo not given),3.5%,i,-0.85
COc1cc(OC)c(C2=NOC(C(=O)O)C2)cc1Cl (stereo not given),-2.8%,i,0.68

# Continued.
SMILES,Hsc70 ATP site,MT1-MMP promoter,WNV NS2B-NS3 inh
Cc1ccccc1CN(c1ccc(C(=O)N2CCCC2)cc1)S(C)(=O)=O,-11%,i,-2.2
O=C(NCCCN1CCOCC1)c1cc2cc(Br)ccc2oc1=O,6.6%,i,-0.92
COc1cccc(C2N(c3ccc(Cl)c(Cl)c3)C(=O)C3CCCN32)c1OC (stereo not given),-5.2%,i,-0.7
O=C(C1CC(c2ccccc2O)=NO1)N1CCCCC1 (stereo not given),0.4%,i,/
O=C(NCc1ccccc1)c1ccc(C2SCC(=O)N2Cc2ccccc2)cc1 (stereo not given),-0.7%,i,/
Cn1cccc1C(=O)NC(=O)COC(=O)c1ccccc1O,4.7%,i,0.78
Cc1cc(N2C(=O)C(=O)/C(=C(/O)c3ccc(F)cc3)C2c2ccc(Cl)cc2)no1 (stereo not given),-3.3%,i,-0.81
Cc1nnc(NC(=O)c2ccc(-c3cccc(C(F)(F)F)c3)o2)s1,0.1%,i,-0.35
O=C(Nc1ccccc1)N1CCC(C(=O)N(Cc2ccco2)Cc2cccs2)CC1,-3.6%,i,-0.97
Cc1nc(SCC(=O)N2CC(C)OC(C)C2)nc(C)c1C (stereo not given),1.7%,i,/
Cc1ccc2nsnc2c1S(=O)(=O)N1CCN(CCc2ccccc2)CC1,1.8%,i,-0.08
Cc1cnc(C(=O)OCC(=O)NC(C)C)cn1,1.5%,i,/
Cc1cccc2cc(COC(=O)C(C)C)c(=O)[nH]c12,1.4%,i,0.69
COC(=O)c1c(C)n(-c2ccc(OC)cc2)c2ccc(O)cc12,3.8%,i,0.45
CCOC(=O)c1cc(-c2ccccc2)nc2c1c(C)nn2-c1ccccn1,2.7%,i,/
Clc1nc(NCc2cccnc2)nc(N2CCOCC2)n1,-2.1%,i,/
CCOc1ccc(C2/C(=C(\O)c3c(C)[nH]c(C(=O)OC)c3C)C(=O)C(=O)N2CCN(C)C)cc1 (stereo not given),1.9%,i,-1.5
COc1ccc(NC(=O)c2sc3cc(C(F)(F)F)cnc3c2-c2cccs2)cc1,-0.3%,i,/
O=C(NC1=NCCS1)c1ccc2c(c1)C(=O)N(Cc1ccco1)C2=O,1.7%,i,-0.18
CCOC(=O)c1c(C)n(C)c2ccc(OCC(O)CN(CC)CC)cc12 (stereo not given),0.7%,i,1.9
Cc1cc(NC(=O)CS(=O)(=O)c2cn(Cc3ccc(F)cc3)c3ccccc23)no1,-0.3%,i,0.67
Clc1ccc(-n2ncc3c(NCc4ccco4)ncnc32)cc1,-1.8%,i,-0.93
COC(=O)C1=C(N)n2c(s/c(=C\c3cccnc3)c2=O)=C(C(=O)OC)C1c1cccnc1 (stereo not given),3.3%,i,-0.51
N#Cc1c(NC(=O)CSC2=NCCS2)sc2c1CCCC2,-16%,i,0.7
C=C(C)CSc1nc(N)c2c3c(sc2n1)CCC3,-3.1%,i,0.46

# 2 compounds drawn at random from those above, as already listed:
SMILES,Hsc70 ATP site,MT1-MMP promoter,WNV NS2B-NS3 inh
Cc1nc(SCC(=O)N2CC(C)OC(C)C2)nc(C)c1C (stereo not given),1.7%,i,/
O=C(C1CC(c2ccccc2O)=NO1)N1CCCCC1 (stereo not given),0.4%,i,/

# Following part
SMILES,Hsc70 ATP site,MT1-MMP promoter,WNV NS2B-NS3 inh
CCN(CC)c1ncc(C)c(=O)[nH]1,-1.0%,i,-0.39
COc1ccc(NC(=O)Nc2c(C)n(C)n(-c3ccccc3)c2=O)cc1,-2.9%,i,0.33
CCCCCCCCCCCNC(=O)c1ccoc1C,-5.1%,i,/
CCOC(=O)c1[nH]c(C)c(C(=O)N(C)C)c1C,0.9%,i,-0.18
COC(=O)c1c(C)cc(C)n2c1nc1ccccc12,-4.9%,i,-1.1
Cc1ccc(C(=O)C2OC(=O)C(C)(C)C(=O)C2(C)C)cc1 (stereo not given),13%,i,/
CCc1ccc(NC(=O)CSc2nnc(Cn3c(=O)sc4ccccc43)n2C)cc1,-1.0%,i,-0.67
Cc1[nH]nc(N=Cc2c(O)n(C)c(=O)n(C)c2=O)c1-c1ccccc1,-1.2%,i,0.72
CN1CCN(C(=O)c2ccccc2N(Cc2ccccc2)S(=O)(=O)c2ccccc2)CC1,-4.5%,i,/
Cc1ccc(NS(=O)(=O)c2cc(C(N)=O)ccc2C)cc1,-3.1%,i,/
CC(C)OC(=O)c1cccc(C(=O)Oc2ccc(Br)cc2)n1,2.7%,i,/
C=C(C)c1cccc(C(C)(C)NC(=O)Nn2cnnc2)c1,11%,i,1.1
O=C(COC(=O)C1CCCCC1C(=O)N1CCc2ccccc21)NCc1ccco1 (stereo not given),-12%,i,-0.94
CSc1nnc(-c2ccc(S(=O)(=O)N3CCOCC3)cc2)n1CC1CCCO1 (stereo not given),-5.1%,i,-1
CC(C)(C)C(=O)NCCCc1ccccc1,0.8%,i,/
COc1cc(-c2nnc(SCC(=O)N3CCCC3)o2)cc(OC)c1OC,4.3%,i,1.4
CCOC(=O)c1c(C)n(C)c2ccc(OCC(O)CNC(CC)CO)cc12 (stereo not given),-3.3%,i,0.2
Cn1c(=O)c2c(nc(NC(Cc3ccccc3)C(=O)O)n2Cc2ccccc2)n(C)c1=O (stereo not given),-9.5%,i,-0.87
CSc1nnc(-c2ccco2)c(-c2ccco2)n1,3.4%,i,-1.3
Cc1ccccc1N(Cc1nnc2n1CCCCC2)C(=O)Nc1ccccc1,-2.1%,i,0.3
Cc1ccc(-c2cc3nc4c(c(=O)n3[nH]2)CCCC4)cc1,1.1%,/,-0.00047
CCc1nc2c(nnn2Cc2ccc(F)cc2)c(=O)[nH]1,-2.8%,i,/
Cn1c(=O)c2c(nc(NCCCO)n2CCc2ccccc2)n(C)c1=O,1.8%,i,0.11
Cc1cc(NS(=O)(=O)c2ccc(NC(=O)COc3ccccc3Cl)cc2)no1,-2.1%,i,1
Cc1nn(C)c(C)c1CN(C)C(=O)c1cc2n(n1)C(C(F)(F)F)CC(c1cccs1)N2 (stereo not given),-3.4%,i,0.81
SMILES,Hsc70 ATP site,MT1-MMP promoter,WNV NS2B-NS3 inh
CN(C)c1ccc(N=Cc2ccco2)cc1,-1.9%,i,-0.85
O=C(Cc1ccccc1)Nc1cccc(N2CCCC2)c1,13%,i,-0.08
Cc1ccc2oc(Nc3nc(C)cc(C)n3)nc2c1,-4.6%,i,-1.1
Cn1cc(Cl)nc1C(O)c1ccccc1 (stereo not given),3.9%,i,-0.71
CC(=O)Nc1ccc(NC(=O)c2cc(C)nn2-c2ccccc2)cc1,-3.1%,i,0.67
Cc1ccc(C(=O)Nc2ccon2)cc1S(=O)(=O)N1CCCCCC1,1.3%,i,/
CCCc1nc2sc(C(=O)OCC)c(N)c2c2c1COC(C)(C)C2,1.7%,i,/
CCC1CCCCN1S(=O)(=O)c1ccc(NC(=O)c2cccs2)cc1 (stereo not given),-3.5%,i,/
CCCc1nnc(NC(=O)CCCN2C(=O)c3ccccc3C2=O)s1,4.2%,i,/
COc1ccc(S(=O)(=O)Nc2ccc(S(=O)(=O)N3CCCCC3)cc2)cc1OC,-2.6%,i,-0.28
CCOc1ccc(C(=O)Nc2c3c(nn2C(C)(C)C)CSC3)cc1OCC,-0.1%,i,-0.09
Cc1cc(C)n(-c2cc(C(C)(C)C)nc3c(-c4ccc(Cl)cc4)cnn23)n1,6.3%,i,/
CC(C)(C)NC(=O)CSc1nnc(NC(=O)CCn2cnc3ccccc3c2=O)s1,0.5%,i,-0.03
Cc1c(C#N)c2ccccc2n1CC(=O)NCCc1c[nH]c2ccccc12,0.9%,i,0.3
N#Cc1nc(COc2ccc(Br)cc2)oc1N1CCCCCC1,1.9%,i,1.1
CC(=O)/C(C#N)=C1\NC(=O)C(Cc2ccc(C)c(C)c2)S1 (stereo not given),-1.1%,i,/
COc1ccc(Br)cc1CNC(=O)Nc1cccs1,-1.1%,i,/
CC(C)(C)C(=O)Cn1c(=O)n(CC2CCCO2)c(=O)c2ccccc21 (stereo not given),3.1%,i,-0.1
CC(C)(C)NC(=O)C(c1ccccc1)N(C(=O)c1csnn1)C1CC1 (stereo not given),8.7%,i,-0.75
CN(C)Cc1c(O)ccc2[nH]cnc12,-1.0%,i,1.6
CCN(CC)S(=O)(=O)c1ccc2c(c1)nc(CCC(=O)OCc1c(C)noc1C)n2C,-0.5%,i,-0.62
Cc1ccc(C)c(NC(=O)c2ncn[nH]2)c1,5.4%,i,/
COc1ccc(CN2CCSCC2)cc1O,3.6%,i,/
N#CC1(c2c(O)nc3n(c2=O)CCCS3)CCCCC1,-4.8%,i,1.4
CCc1[nH]nc2c1C1(CCN(C(=O)OCc3ccccc3)CC1)C(C#N)=C(N)O2,2.4%,i,-0.46

# The closing 3 records of the section before come first, to join the parts:
SMILES,Hsc70 ATP site,MT1-MMP promoter,WNV NS2B-NS3 inh
COc1ccc(CN2CCSCC2)cc1O,3.6%,i,/
N#CC1(c2c(O)nc3n(c2=O)CCCS3)CCCCC1,-4.8%,i,1.4
CCc1[nH]nc2c1C1(CCN(C(=O)OCc3ccccc3)CC1)C(C#N)=C(N)O2,2.4%,i,-0.46
O=c1c(-c2ccc(Oc3ccccc3)cc2)[n+]([O-])c2ccccc2n1OCc1ccccn1,4.5%,i,/
COCc1[nH][nH]c(=O)c1C=Nc1ccc(Cl)cc1,0.3%,i,/
Cc1ccc(CC2CC(=O)N(Cc3ccco3)C2=O)cc1 (stereo not given),-9.4%,i,-0.76
CCOC(=O)CCc1c(C)c2ccc(OCC(=O)N(CC)CC)c(C)c2oc1=O,2.1%,i,-0.21
CCOc1ccccc1NC(=O)CC1Nc2ccccc2NC1=O (stereo not given),0.9%,i,-0.85
Cc1ccc(C)c(C(=O)N(Cc2nc(-c3ccc(Cl)cc3)no2)C(C)C)c1,3.7%,i,-0.41
CC1(C)Cc2c(c(N3CCOCC3)nc3sc(C#N)c(N)c23)CS1,3.3%,i,0.28
COc1ccc2c(c1OC)C(=O)N1c3ccccc3C(=O)N(c3ccccc3)C21 (stereo not given),-8.3%,i,0.65

# High-throughput results deposited in PubChem BioAssay by several laboratories.
